# Screening data (PubChem)
# Lassa entry inh = inhibitors of Lassa virus binding or cell entry; hit rate 1.2% among 300,000; Lassa virus pseudotype entry inhibition, cell reporter; control for the full effect not named in the record; AID 540256; Potency, µM (doses to about 37.9 µM), inactives show at the highest dose activity change, negative = inhibition, most hits filed as inhibitors; active means well fitted inhibition curve with a large enough effect; inconclusive means small, poorly fitted or top-dose-only effect, or effect the other way; inactive means flat fitted curve, though single readings scatter; tested in HEK293 cells; note: % is set by controls: 0 for no effect and ±100 for the full control effect; nearly all actives have a fitted effect of over 50% in size; luciferase read-out
# Cruzain inh noDet = blocks cruzain activity in detergent-free assay; AID 1476; purified cruzain, Z-FR-AMC fluorescence, no detergent; hit rate 2.3% among 200,000; Potency, µM, for the others: max response, negative = inhibition, usual class: inhibitors; P25779;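 note: plate controls were enzyme without inhibitor for no effect and buffer without enzyme for full effect; nearly all actives have a fitted effect of over 40% in size; top concentration of the series not given in the record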
# Target sequence (P25779 123-467 limits assumed): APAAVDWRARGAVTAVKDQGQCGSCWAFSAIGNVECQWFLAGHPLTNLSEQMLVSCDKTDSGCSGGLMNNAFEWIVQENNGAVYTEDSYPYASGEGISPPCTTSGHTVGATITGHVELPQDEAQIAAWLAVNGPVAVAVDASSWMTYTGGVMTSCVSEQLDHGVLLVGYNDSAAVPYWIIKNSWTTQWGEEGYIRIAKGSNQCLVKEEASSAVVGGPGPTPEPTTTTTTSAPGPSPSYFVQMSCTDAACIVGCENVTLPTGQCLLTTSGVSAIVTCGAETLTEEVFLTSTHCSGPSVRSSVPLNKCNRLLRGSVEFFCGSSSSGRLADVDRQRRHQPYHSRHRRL
#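 Detergent-free condition (0.00005% Triton X-100) in acetate buffer pH 5.5 with DTT. 1.5 nM enzyme and compound were pre-mixed 15 min, then 2 uM Z-FR-AMC substrate added; reaction progress from fluorescence change between first and third reads (60 s).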
# Marburg entry inh = inhibitors of Marburg virus binding or cell entry; hit rate 1.8% among 300,000; Potency, µM (series often up to 37.8 µM), inactives show at the highest dose activity change, negative = inhibition, hits mostly inhibitors; Marburg virus pseudotyped entry inhibition, cell reporter; control for the full effect not named in the record; about a third of the inactives were read at about 46 µM; AID 540276; active = well fitted inhibition curve with a large enough effect; inconclusive = small, poorly fitted or top-dose-only effect, or effect the other way; inactive = flat fitted curve, though single readings scatter; tested in HEK293 cells; about a fifth of its hits are not listed in these tables; note: % is set by controls: 0 for no effect and ±100 for the full control effect; luciferase read-out
# NS1 function inh = inhibitors of influenza NS1 protein function; S. cerevisiae slowed by influenza A NS1, growth recovery by OD600; hit rate 0.4% among 270,000; Potency, µM (top dose mostly 46.1 µM), without a hit: at the highest dose activity, positive = more growth; active means well fitted rising curve with a large enough effect; inconclusive means small, poorly fitted or top-dose-only effect; inactive means no such curve, though single readings can be large or run the other way; note: nearly all actives have a fitted effect of over 50% in size
#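 Read-out: OD600 growth recovery of NS1-expressing budding yeast. Cells grown overnight at 30C in -URA glucose medium, washed, resuspended and diluted 1:100 in 2% galactose assay medium, pH 6.0. Same strain lacking NS1 served as positive control.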
# 2A StopGo = lowers the luciferase signal of an FMDV 2A StopGo reporter. human cells with a luciferase reporter of 2A StopGo recoding; control for the full effect not named in the record. hit rate 1.2% among 410,000. Potency, µM (series often up to 57.9 µM), for inactives: at the top dose signal change, negative = less light. AID 1159524; active = well fitted falling curve with a large enough effect; inconclusive = small, poorly fitted or top-dose-only effect; inactive = no such curve, though single readings can be large or run the other way; tested in HEK293T cells; note: % is set by controls: 0 for no effect and ±100 for the full control effect; nearly all actives have a fitted effect of over 45% in size; luciferase light after 4 h
# RE007 growth inh = less growth of the S. pombe RE007 Vpr strain. S. pombe RE007 Vpr strain, BacTiter-Glo ATP luminescence, 24 h; control for the full effect not named in the record. Potency, µM (doses to about 92.2 µM), for inactives: at the top dose activity change, negative = less growth. hit rate 0.21% among 360,000. AID 651644; active = well fitted falling curve with a large enough effect; inconclusive = small, poorly fitted or top-dose-only effect; inactive = no such curve, though single readings can be large or run the other way;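 note: % is set by controls: 0 for no effect and ±100 for the full control effect; nearly all actives have a fitted effect of over 50% in size; the assay follows cell death caused by Vpr and the record does not say whether a fall means rescue or toxicity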
#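 Fission yeast strain RE007, carrying one chromosomally integrated HIV-1 vpr copy, was seeded at OD 0.01 in PMG+AL medium with 23 nL pinned compound. After 24 h at 30 °C and 99% humidity, viability was read by BacTiter-Glo luminescence.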
# Cruzain inh Det = blocks cruzain activity in presence of Triton detergent; P25779; purified cruzain, Z-FR-AMC fluorescence, 0.01% Triton; Potency, µM, for the others: max response, negative = inhibition, most hits filed as inhibitors; hit rate 0.43% among 200,000; AID 1478;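 note: plate controls were neutral wells for no effect and buffer without enzyme for full effect; nearly all actives have a fitted effect of over 40% in size; top concentration of the series not given in the record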
#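 Detergent-containing run (0.01% Triton X-100) in acetate buffer pH 5.5 with 5 mM DTT: enzyme at 1.5 nM final, 15 min compound preincubation at room temperature, then 2 uM Z-FR-AMC substrate. Activity taken as 60 s fluorescence increase at 360/450 nm.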
# SARS PLP yeast = inhibitors of SARS-CoV papain-like protease in yeast; S. cerevisiae expressing SARS-CoV PLpro, growth rescue; control for the full effect not named in the record; Potency, µM (top dose mostly 32.9 µM), without a hit: top-dose activity, positive = growth rescue; hit rate 0.19% among 330,000; active means well fitted rising curve with a large enough effect; inconclusive means small, poorly fitted or top-dose-only effect; inactive means no such curve, though single readings can be large or run the other way; note: 0% is about no effect; nearly all actives have a fitted effect of over 55% in size; growth read by luminescence after 48 h
# * hit, by the source's call; ? = inconclusive; . = not tested or not shown; & = joins results of further samples; [ ] = dose if it differs, or a comment. Unless noted, calls come from the whole dose curve; as a rule, active = well fitted curve in the direction sought with a large enough effect; inconclusive = small, poorly fitted or top-dose-only effect, or another doubt; inactive = no such curve, though single readings can be large; an effect the other way counts as inactive or inconclusive. Potency is the fitted concentration of half-maximal effect.
SMILES,Lassa entry inh,Cruzain inh noDet,Marburg entry inh,NS1 function inh,2A StopGo,RE007 growth inh,Cruzain inh Det,SARS PLP yeast
O=C(CNC(=O)c1ccc(Cl)cc1)OCc1nc2ccccc2s1,-2%,16µM*,12%[46.1 µM],-4%,57%[activator],14%,14µM*,-10%
CCOc1ccc(-c2c(C)n([O-])c3c([n+]2=O)CCCC3)cc1,5%,-14%,0%,-24%,-12%,2%,-0.9%,-10%
CCN(CC)c1ccc(/C=N/N=C(N)N)c(O)c1,.,.,.,1%,-10%,-8%,.,0%
N#CCCN(Cc1ccccc1)C(=S)Nc1ccc(F)cc1,-17%[46.1 µM],.,?,3%,57%[activator],9%,.,0%
COc1cc(/C=C/C(=O)OCC(=O)Nc2cc(C(F)(F)F)ccc2N2CCOCC2)ccc1O,-8%,-7%,?,17%,-12%,20%,-6.4%,-1%
COc1ccccc1-c1cc(C(F)(F)F)nc(S(=O)(=O)CCCC(=O)Nc2ccccc2F)n1,?,8%,?,.,?,.,-16%,.
CCOC(=O)C(Cc1c[nH]c2ccccc12)NC(=O)COc1ccc(Cl)c(C)c1 (stereo not given),?,2%,.,.,0%,.,-10%,.
CCN(CC)S(=O)(=O)c1cccc(C(=O)Nc2nc3cc4c(cc3s2)OCCO4)c1,?,-17%,18µM*,11%,13µM*,1%,-5.4%,-2%
O=c1c2cc(NC(=S)NCCCN3CCC(Cc4ccccc4)CC3)ccc2nc2n1CCCCC2,?,.,7.1µM*,0%,-21%,-13%,.,-3%
COc1ccc2c(c1)CCC1C2=NN(/C(C)=C/C(C)=O)C1c1cccc(F)c1 (stereo not given),0%,.,?,-6%,24%,2%,.,-2%
Cc1cc(C)c(S(=O)(=O)N(C)CC(=O)NCCN2CCOCC2)c(C)c1,5%,.,-2%,12%,9%,-9%,.,2%
S=c1[nH]nc(CCc2nc3ccccc3[nH]2)n1-c1cccc(Cl)c1,13%,.,18%[14.2 µM],0%,-7%,2%,.,0%
CCOC(=O)[C@@]12C(=O)C(=O)N[C@]1(c1ccccc1)C1OCCCC12 (stereo not given in full),8%,13%,8%,-3%,-8%,-3%,0.1%,10%
CCNC(=O)CC1SC(=Nc2cccc(Cl)c2C)N(C)C1=O (stereo not given),1%,23%,?,-12%,1%,4%,0.8%,6%
Cc1ccccc1/C=C/c1nc2ccccc2c(=O)n1CCc1ccccc1,?,-12%,-27%,4%,?,-9%,-7.4%,14%
O=C(c1ccc2c(c1)OCO2)[C@@H]1[C@@H]2C(=O)N(C3CCCCC3)C(=O)[C@@H]2C2c3ccccc3C=CN21 (stereo not given in full),4%,20µM*,-27%,13µM*,?,6%,-2.2%,-6%
CCC(CC)c1nnc(NC(=O)CCc2ccc(OC)cc2)s1,-4%,.,6%,-7%,-16%,12%,.,-3%
Cc1cccc(C)c1NC(=O)CSc1nnc(Cc2ccccc2)o1,2%,-7%,-26%[46.1 µM],-1%,1%,-1%,2.2%,2%
CCOC(=O)C1(CC2CC2)CCN(C(=O)c2cc(C3CC3)nc3ccccc23)CC1,4%,.,0%[46.1 µM],21%,12%,0%,.,-1%
CCOC(=O)C1=NOC(Cn2cc(C#N)c(=O)n(C)c2=O)C1 (stereo not given),25%[46.1 µM],.,6%[46.1 µM],.,6%,10%,.,0%
O=c1[nH]c(COc2ccc(Cl)cc2Cl)nc2ccccc12,0%[46.1 µM],.,7%[46.1 µM],1%,25%,9%,.,-2%
Cc1c(C(=O)N2CCN(S(=O)(=O)c3ccccc3)CC2)oc2ccc(Br)cc12,?,.,0%,.,?,-3%,.,0%
CCOc1ccccc1C(=O)Nc1ccc(-n2nncc2C(C)(C)C)cc1,0%,.,-15%,.,-26%,-23%,.,0%
COC(=O)CSc1nc(C)c(C(=O)Nc2ccccc2C)c(-c2ccc(Cl)cc2)c1C#N,-37%,2%,-26%,2%,?,2%,-2.2%,-15%
Cc1ccc(NC(=S)N(CCN2CCOCC2)Cc2cc3cc4c(cc3[nH]c2=O)OCCO4)cc1,.,.,.,1%,-11%,2%,.,-2%
N#Cc1ccccc1NC(=O)C(=O)NCC(c1cccnc1)N1CCN(c2ccccc2)CC1 (stereo not given),0%[46.1 µM],?,.,.,0%,.,-9.3%,.
CC(C)c1ccccc1NC(=O)COC(=O)CCN1C(=O)/C(=C\C=C\c2ccccc2)SC1=S,?,16µM*,?,18%,?,1%,-11%,9%
N#Cc1nc(COc2ccc(Cl)cc2)oc1N1CCN(Cc2ccccc2)CC1,-16%,-3%,?,-61%,-26%,0%,0.5%,-2%
COc1cc2c(cc1OC)C(c1ccccc1O)NCC2 (stereo not given),.,.,.,4%,1%,-9%,.,-3%
COc1ccccc1-c1n[nH]c2c1[C@H](C)CC[C@H]2C(C)C,-2%,2%,?,-111%,-28%,6%,-12%,-32%
CN1CCN(S(=O)(=O)c2cccc([N+](=O)[O-])c2)CC1,28%[14.3 µM],.,-1%,.,-22%,5%,.,.
Cc1cc(C(C)(C)C)cc(S(=O)(=O)Nc2ccc(C(=O)O)cc2)c1C,-6%,.,-4%[46.1 µM],1%,93%[activator],4%,.,-1%
O=C1NN(c2ccc(Cl)c(Cl)c2)C(=O)/C1=C/c1cccc(OC(=O)c2cccs2)c1,.,7%,-1%,-4%,.,.,20µM*,-2%
CCOC(=O)c1c(C)[nH]c(C(=O)OCCOc2ccc(Cl)cc2)c1C,-12%,11%,9%,8%,31%[activator],14%,-2.7%,-15%
COc1ccc(OC)c(Nc2nc(-c3sc(NC(=O)CC(C)C)nc3C)cs2)c1,.,-29%,.,10%,-3%,2%,-1.2%,1%
CC(C)n1c(=O)c2c(O)cc(=O)oc2c2ccccc21,16%,25µM*,-9%,-62%,-25%,?,1.5%,1%

# Among those listed so far, these contain two or more sulfur atoms.
SMILES,Lassa entry inh,Cruzain inh noDet,Marburg entry inh,NS1 function inh,2A StopGo,RE007 growth inh,Cruzain inh Det,SARS PLP yeast
CCN(CC)S(=O)(=O)c1cccc(C(=O)Nc2nc3cc4c(cc3s2)OCCO4)c1,?,-17%,18µM*,11%,13µM*,1%,-5.4%,-2%
CC(C)c1ccccc1NC(=O)COC(=O)CCN1C(=O)/C(=C\C=C\c2ccccc2)SC1=S,?,16µM*,?,18%,?,1%,-11%,9%
COc1ccc(OC)c(Nc2nc(-c3sc(NC(=O)CC(C)C)nc3C)cs2)c1,.,-29%,.,10%,-3%,2%,-1.2%,1%

# (next part)
SMILES,Lassa entry inh,Cruzain inh noDet,Marburg entry inh,NS1 function inh,2A StopGo,RE007 growth inh,Cruzain inh Det,SARS PLP yeast
CC(C)(C)S(=O)(=O)c1ccc2nc3c(n2c1)CCCC3,-2%,-3%,-9%[46.1 µM],7%,13%,6%,4.0%,16%
Cc1nc(-c2ccc(S(=O)(=O)N3CCN(Cc4ccccc4)CC3)s2)cs1,.,.,.,-7%,-30%,-1%,.,-5%
COc1cccc(C(=O)Nn2cnnc2)c1OC,.,.,.,9%,6%,4%,.,3%
O=C(/C=C/c1ccc([N+](=O)[O-])cc1)NCC1CCCO1 (stereo not given),0%,-2%,0%,16%,26%,-10%,-1.5%,-12%
CC(C)(CNS(=O)(=O)c1ccc(F)cc1)CNS(=O)(=O)c1ccc(F)cc1,1%,-10%,-3%,16%,-1%,-10%,-3.1%,1%
Cc1ccc(NC(=O)CCCc2c[nH]c3ccccc23)nc1,.,.,.,-4%,4%,5%,.,-1%
CCN(CC)S(=O)(=O)c1ccc(C)c(NC(=O)Cn2cnc3cc([N+](=O)[O-])ccc3c2=O)c1,-8%,.,11%[46.1 µM],.,-22%,8%,.,0%
O=C(CSc1ccc2nnc(-c3cccc(F)c3)n2n1)NCc1ccco1,1%,-5%,0%,-2%,-10%,-3%,1.0%,-1%
COc1cc(/C=C/C(=O)c2c(O)cc(C)oc2=O)cc(OC)c1O,0%,?,-20%,1%,14µM*,-12%,1.7%,3%
COc1ccc(-c2nc3c(c(SCc4ccc(Br)cc4)n2)Cc2c(CO)cnc(C)c2O3)cc1,2%[46.1 µM],23%,.,.,-9%,.,-0.9%,.
O=C(CSc1ncn[nH]1)NCCC(c1ccccc1)c1ccccc1,1%,11%,-27%[46.1 µM],-1%,-12%,-9%,-0.4%,2%
CCc1c(C)nc2cc(-c3ccc(Cl)cc3)[nH]n2c1=O,.,.,.,28%,42%[activator],6%,.,7%

# Next part, starting with the last 2 of the part before.
SMILES,Lassa entry inh,Cruzain inh noDet,Marburg entry inh,NS1 function inh,2A StopGo,RE007 growth inh,Cruzain inh Det,SARS PLP yeast
O=C(CSc1ncn[nH]1)NCCC(c1ccccc1)c1ccccc1,1%,11%,-27%[46.1 µM],-1%,-12%,-9%,-0.4%,2%
CCc1c(C)nc2cc(-c3ccc(Cl)cc3)[nH]n2c1=O,.,.,.,28%,42%[activator],6%,.,7%
CCOC(=O)C1=C(C)NC(=O)NC1/C=C/c1ccccc1 (stereo not given),11%,?,-2%,-9%,.,-4%,6.3%,0%
Cc1ccc(NC(=O)Nc2ccc(Cl)c(Cl)c2)nc1,-4%,.,?,2%,17%,2%,.,-1%
COc1cccc(NC(=O)CSc2nc3ccccc3n2C)c1,?,-2%,-8%&-8%[46.1 µM],-7%,-2%&-3%,-22%,-7.2%,4%
O/N=C\c1cnc(N2CCN(c3ccccc3)CC2)s1,.,.,.,-32%,24%,3%,.,1%
O=S(=O)(NCc1ccccc1Cl)c1ccc(-c2cnc(C3CC3)o2)cc1,?,0%,.,.,-6%,.,-3.1%,.
CC(C)(C)NC(=O)COc1ccc2oc3c(c2c1)CCCC3,?,.,-3%[46.1 µM],-13%,6%,-17%,.,-2%
Cc1c(NS(=O)(=O)c2ccc(C(=O)NCc3ccccc3)cc2)c(=O)n(-c2ccccc2)n1C,12%[46.1 µM],.,17%[46.1 µM],.,-2%,-22%,.,-6%
